Source: PubChem BioAssay (National Center for Advancing Translational Sciences (NCATS))
Cruzain inh Det: cruzain (T. cruzi) inhibition with detergent; P25779; Potency, µM, without a hit: max response, negative = inhibition, actives largely listed as inhibitors; actives 0.43% (n = 200,000); purified cruzain, Z-FR-AMC fluorescence, 0.01% Triton;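 further: plate controls were neutral wells for no effect and buffer without enzyme for full effect; nearly all actives have a fitted effect of over 40% in size; top concentration of the series not given in the record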
Target sequence (P25779 123-467 limits assumed): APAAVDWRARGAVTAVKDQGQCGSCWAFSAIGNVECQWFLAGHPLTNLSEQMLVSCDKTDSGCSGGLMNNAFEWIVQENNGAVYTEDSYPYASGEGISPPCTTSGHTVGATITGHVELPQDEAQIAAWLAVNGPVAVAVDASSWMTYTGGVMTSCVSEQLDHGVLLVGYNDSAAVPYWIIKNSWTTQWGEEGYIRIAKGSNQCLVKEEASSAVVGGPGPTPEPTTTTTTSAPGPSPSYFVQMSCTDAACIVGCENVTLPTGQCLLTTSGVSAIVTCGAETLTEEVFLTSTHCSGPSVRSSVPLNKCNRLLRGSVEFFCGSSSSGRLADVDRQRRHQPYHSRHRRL
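Detergent-containing arm of a paired screen for aggregation-based inhibition: 0.01% Triton X-100 present. Cruzain at 1.5 nM cleaved 2 uM Z-FR-AMC at pH 5.5 with 5 mM DTT; AMC fluorescence gain over 60 s measured activity.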
2A StopGo: lowers the luciferase signal of an FMDV 2A StopGo reporter | actives 1.2% (n = 410,000) | Potency, µM (highest dose often 57.9 µM), for inactives: at the highest dose signal change, negative = less light | human cells with a luciferase reporter of 2A StopGo recoding; control for the full effect not named in the record; active = well fitted falling curve with a large enough effect; inconclusive = small, poorly fitted or top-dose-only effect; inactive = no such curve, though single readings can be large or run the other way; tested in HEK293T cells; further: nearly all actives have a fitted effect of over 45% in size; luciferase light after 4 h
Cruzain noTriton: inhibitors of Trypanosoma cruzi cruzain without detergent | actives 2.3% (n = 200,000) | Potency, µM, inactives show max response, negative = inhibition, usual class: inhibitors | purified cruzain, Z-FR-AMC fluorescence, no detergent | P25779;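 further: plate controls were enzyme without inhibitor for no effect and buffer without enzyme for full effect; nearly all actives have a fitted effect of over 40% in size; top concentration of the series not given in the record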
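Purified cruzain at 1.5 nM, pre-incubated 15 min with compound at room temperature in 100 mM sodium acetate pH 5.5, 5 mM DTT, 0.00005% Triton X-100. Reaction started with 2 uM Z-FR-AMC; AMC fluorescence increase over 60 s gives rate.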
* hit, by the source's call; ? = inconclusive; & = joins results of further samples; [ ] = dose if it differs, or a comment. Unless noted, the call rests on the fitted dose curve; in most records, active means well fitted curve in the direction sought with a large enough effect; inconclusive means small, poorly fitted or top-dose-only effect, or another doubt; inactive means no such curve, though single readings can be large; an effect the other way counts as inactive or inconclusive. Unless noted, on the % scale 0 is the no-effect control and ±100 the full control effect; potency means the concentration at half of the fitted maximal effect.

SMILES	Cruzain inh Det	2A StopGo	Cruzain noTriton
O=C(Nc1cccc(F)c1)N1CCC2(CC1)CCN(C(=O)Oc1ccccc1)CC2	4.2%	?	6%
COCCn1c(=O)c(-c2cccc(C#N)c2)nc2cnc(Nc3ccccc3)nc21	1.8%	-12%	-8%
OCC1CCCN2CCCCC12 (stereo not drawn)	1.2%&5.7%	-1%	-4%&-2%
O=C(Nc1ccccc1)N1CC[C@@]2(CCCN(C(=O)c3ccco3)C2)C1	5.8%	12%	-4%
CC(=O)N1CCC2(CC1)CCN(C(=O)Nc1cccc(C#N)c1)CC2	-2.9%	-15%	5%
CCC(=O)O[C@H](CC(=O)O)C[N+](C)(C)C	-0.3%	-10%	-6%
CN(C)c1ncc2nc(CCc3ccccc3)c(=O)n(Cc3cccs3)c2n1	-5.2%	0%	-13%
CCNc1ncc2nc(-c3ccc(OC)cc3)c(=O)n(C[C@H]3CCCO3)c2n1	1.0%	-5%	1%
N[C@H](C(=O)O)C(O)C(O)C(O)CO (stereo partly drawn)	4.3%	4%	-4%
COCCn1c(=O)c(-c2ccc(OC)cc2)nc2cnc(Oc3ccccc3)nc21	-3.7%	19%	?
CN(C)C(=O)c1ccc(-c2nccc(NCc3cccnc3)n2)cc1	0.2%	33%[activator]	-1%
CCCCCCc1c(C[C@H](N)C(=O)O)o[nH]c1=O	1.7%&0.9%	-1%&-8%	4%&-2%
COc1cccc(-c2cc(NCc3cccnc3)ncn2)c1	-3.3%	41%[activator]	-4%
Cc1cnc(CNc2ncncc2-c2ccccc2Cl)cn1	-5.1%	-16%	8%
COc1ccc(Oc2ncc3nc(-c4cccc(C#N)c4)c(=O)n(Cc4cccc(OC)c4)c3n2)cc1	-2.8%	-5%	?
CC1=C2C(=COC(C)C2C)C(=O)C(C(=O)O)=C1O (stereo not drawn)	-2.6%	-14%	0%
O=c1c(CCc2ccccc2)nc2cnc(Nc3ccccc3)nc2n1C[C@H]1CCCO1	0.6%	-18%	2%
COc1ccc(C(=O)N2CCC3(CCN(Cc4cc(C(F)(F)F)cc(C(F)(F)F)c4)CC3)CC2)cc1	0.9%	-15%	6%
C=C1C2CC[C@@]3(C)C(c4ccoc4)OC(=O)C[C@@]13OC1CC(=O)C(C)(C)C(CC(=O)OC)[C@]12C (stereo partly drawn)	-0.1%	-3%	-6%
C=C1CCC(=O)C(C)CCC2C1CC2(C)C (stereo not drawn)	3.1%	0%	2%
CNc1ncnc2ccc(-c3ccccc3C#N)cc12	4.1%	-19%	17%
COc1ccc(CNc2ccnc(-c3cccc(NS(C)(=O)=O)c3)n2)c(OC)c1	-2.8%	10%	7%
CCNc1ncc2nc(-c3ccc(F)cc3)c(=O)n(C)c2n1	2.1%	21%	18%
CN(C)c1ncc2nc(-c3cccs3)c(=O)n(CCc3ccccc3)c2n1	1.0%	6%	3%
Cn1cccc1C(=O)N1CCC2(CC1)CN(C(c1ccccc1)c1ccccc1)C2	-4.7%	-14%	-15%
C[C@@]12CCC(OS(=O)(=O)O)C[C@@H]1CCC1C2CC[C@]2(C)C(=O)CCC12 (stereo partly drawn)	2.2%	-13%	18%
Cc1ccccc1-c1cc(N2CCNCC2)ncn1	-2.3%	-15%	-2%
CN1CCN(c2nc(-c3ccc4c(c3)OCO4)nc3ccccc23)CC1	-2.7%	4%	-11%
COc1ccc(-n2c(=O)c(-c3ccc(F)c(F)c3)nc3cncnc32)cc1	-1.8%	-12%	-15%
COC(=O)N1CCC2(CC1)CN(C(=O)Nc1cccc(F)c1)C2	3.5%	20%	11%
CC(N)CCCC(C)(C)O (stereo not drawn)	-2.3%	-7%	3%
CC(=O)OC1C[C@]2(C)[C@@H](CC(O)C3[C@]4(C)CCC(O)C(C)[C@@H]4CC[C@]32C)/C1=C(/CCC=C(C)C)C(=O)O (stereo partly drawn)	-1.0%	10%	?
COCC(=O)N1CCC[C@@]2(CCN(Cc3cc(C(F)(F)F)cc(C(F)(F)F)c3)C2)C1	0.5%	0%	-2%
O=C(O)C[C@@H]1NC(=O)[C@H](Cc2ccccc2)NC1=O	2.1%	-8%	3%
Cn1cccc1C(=O)N1CCC2(CCCN(C(=O)Nc3cccc(C#N)c3)C2)CC1	0.5%	-14%	-6%
O=c1ncccn1[C@@H]1O[C@H](CO)C(O)[C@@H]1O (stereo partly drawn)	-3.1%	-5%	-2%
CC(CCC(=O)O)C1CCC2C3CC[C@H]4CC(O)CC[C@@]4(C)C3C=C[C@]12C (stereo partly drawn)	?	-1%	?
CC(=O)N1CCC2(CCN(Cc3ccc(C#N)cc3)CC2)CC1	-1.1%	-29%	6%
CN(C)C(=O)c1ccc(-c2cncnc2NC2CCNCC2)cc1	-3.7%	0%	15%
COc1ccccc1CCn1c(=O)c(CCc2ccccc2)nc2cncnc21	-3.1%	26%	-6%
O=C(c1csnn1)N1CCC2(CC1)CCN(c1ccccn1)CC2	4.1%	-18%	-6%
COC(=O)N1CCC2(CCN(Cc3ccccc3OC)CC2)CC1	0.6%	-18%	0%
N#CCCn1c(=O)c(-c2ccc(Cl)cc2)nc2cnc(Oc3ccccc3)nc21	2.5%	-4%	2%
NC(Cc1cc(I)c(Oc2cc(I)c(O)c(I)c2)c(I)c1)C(=O)O (stereo not drawn)	0.1%	-12%	-3%
O=C(Nc1ccccc1)[C@@]12C[C@@H]1/C(=N/O)c1ccccc1O2	-4.2%	-3%	-7%
c1ccc(C(c2ccccc2)N2CCCC3(CCNCC3)C2)cc1	0.5%	-18%	-1%
CCCCCCC(C)OC(=O)COc1ccc(Cl)cc1Cl (stereo not drawn)	2.7%	6%	-4%
COc1ccc(NC(=O)N2CC3(CCN(C(=O)c4ccncc4)CC3)C2)cc1	1.8%	-4%	-3%
O=c1cnc2cnc(Oc3ccccc3)nc2n1C1CC1	-1.0%	-4%	-21%
CN1CCN(c2ncncc2-c2ccccc2C(F)(F)F)CC1	8.5%	-5%	5%

4 records picked at random from those above:
SMILES	Cruzain inh Det	2A StopGo	Cruzain noTriton
NC(Cc1cc(I)c(Oc2cc(I)c(O)c(I)c2)c(I)c1)C(=O)O (stereo not drawn)	0.1%	-12%	-3%
O=C(c1csnn1)N1CCC2(CC1)CCN(c1ccccn1)CC2	4.1%	-18%	-6%
CN1CCN(c2ncncc2-c2ccccc2C(F)(F)F)CC1	8.5%	-5%	5%
CCCCCCC(C)OC(=O)COc1ccc(Cl)cc1Cl (stereo not drawn)	2.7%	6%	-4%

(continued)
SMILES	Cruzain inh Det	2A StopGo	Cruzain noTriton
c1ccc(CNc2nc(-c3ccc4c(c3)OCO4)nc3ccccc23)cc1	-7.7%	15%	1%
O=c1c(-c2ccc(Cl)cc2)nc2cnc(Nc3ccccc3)nc2n1C[C@H]1CCCO1	-2.5%	-8%	-6%
COc1ccc(-c2nc3cnc(OC)nc3n(Cc3ccc(F)cc3)c2=O)cc1	-3.0%	4%	5%
COc1ccccc1-c1cc(Nc2ccc(F)cc2)ncn1	-6.5%	19%	-3%
CCNc1ncc2nc(-c3ccc(OC)cc3)c(=O)n(CCc3ccccc3)c2n1	-0.7%	-10%	-1%
COc1ccc(Oc2ncc3ncc(=O)n(Cc4cccs4)c3n2)cc1	-4.9%	?	11%
CS(=O)(=O)Nc1c(O)ccc2c1CCC[C@H]2C1=NCCN1	4.8%	-19%	3%
O=C(Nc1ccccc1)N1CC2(CCN(S(=O)(=O)c3ccccc3)CC2)C1	-1.1%	21%	-10%
COc1ccc(CNc2ncnc3ccc(-c4cccc(NS(C)(=O)=O)c4)cc23)c(OC)c1	-4.4%	0%	3%
O=C(c1cccc(F)c1)N1CCC2(CC1)CN(c1ncccn1)C2	-0.3%	-11%	-9%
Cc1nc2cnc(N(C)C)nc2n(C[C@H]2CCCO2)c1=O	-3.9%	-10%	-10%
Cc1noc(C)c1C(=O)N1CCC2(CCN(Cc3ccccc3)CC2)CC1	-1.0%	-8%	3%
COc1ccc2[nH]cc(CCNc3ncnc4ccc(-c5c(C)noc5C)cc34)c2c1	-1.3%	-17%	-13%
CN(C)Cc1ccccc1-c1ccc2ncnc(N(C)C)c2c1	2.0%	-2%	-17%
CC(N)Cc1ccc(O)cc1 (stereo not drawn)	0.4%	0%	-6%
CC(C)NC(=O)N1CC2(CCN(S(=O)(=O)c3ccccc3)CC2)C1	-0.2%	1%	2%
COCC(=O)N1CCC[C@@]2(CCN(c3ccccn3)C2)C1	-3.0%	12%	3%
O=C(c1cccc(F)c1)N1CCC2(CC1)CCN(c1ccncc1)CC2	2.6%	-10%	-7%
OCC1OC(n2cnc3c(=S)nc[nH]c32)C(O)C1O (stereo not drawn)	-1.7%	-13%	-6%
O=c1[nH]cnc2c1ncn2C1CC(O)C(CO)O1 (stereo not drawn)	4.3%	9%	1%
COc1ccc(-n2c(=O)c(-c3ccccc3)nc3cncnc32)cc1	-3.8%	-4%	-7%
CCNc1ncc2nc(-c3cccc(C#N)c3)c(=O)n(C)c2n1	-5.4%	37%[activator]	?
CN1CCN(c2ncc3nc(-c4cccs4)c(=O)n(Cc4cccs4)c3n2)CC1	4.1%	-9%	21%
COC1C(O)CC(=O)OC(C)C/C=C/C=C/[C@@H](OC2CCC(N(C)C)C(C)O2)C(C)C[C@@H](CC=O)[C@@H]1O[C@H]1OC(C)[C@H](O[C@@H]2C[C@@](C)(O)C(O)C(C)O2)C(N(C)C)C1O (stereo partly drawn)	2.7%	13%	1%
N#Cc1ccc(CN2CCC3(CC2)CCN(S(=O)(=O)c2ccccc2)CC3)cc1	0.2%	?	27%
Cc1cnc(CNc2ccnc(-c3ccoc3)n2)cn1	2.0%	5%	-11%
CCC(=O)N[C@@H]1Cc2ccccc2[C@@H](c2ccccc2)C1	-4.8%	-17%	?
COC(=O)N1CCC2(CC1)CN(c1ccccc1)C2	3.7%	-7%	-2%
CCCCC/C=C\C/C=C\CCCCCCCC(N)=O	-0.3%&-0.7%	-13%[6.7 µM]	-4%&-3%
N[C@H](CSC(c1ccccc1)(c1ccccc1)c1ccccc1)C(=O)O	-2.9%	-5%	2%

Part of the list above in order of formula weight, descending.
SMILES	Cruzain inh Det	2A StopGo	Cruzain noTriton
CN1CCN(c2ncc3nc(-c4cccs4)c(=O)n(Cc4cccs4)c3n2)CC1	4.1%	-9%	21%
N#Cc1ccc(CN2CCC3(CC2)CCN(S(=O)(=O)c2ccccc2)CC3)cc1	0.2%	?	27%
CCCCC/C=C\C/C=C\CCCCCCCC(N)=O	-0.3%&-0.7%	-13%[6.7 µM]	-4%&-3%
COC(=O)N1CCC2(CC1)CN(c1ccccc1)C2	3.7%	-7%	-2%

(next part)
SMILES	Cruzain inh Det	2A StopGo	Cruzain noTriton
O=C(O)Cc1ccc(OCCNC[C@H](O)c2ccccc2)cc1	7.8%	2%	0%
COc1cccc(-c2nc(NC3CC3)c3ccccc3n2)c1	-6.5%	9%	7%
COC(=O)N1CCC[C@@]2(CCN(c3ncccn3)C2)C1	1.0%	10%	-10%
Cc1noc(C)c1C(=O)N1CCC2(CCCN(Cc3ccccc3)C2)CC1	3.5%	-19%	-7%
FC(F)(F)c1cc(CN2CC[C@@]3(CCCNC3)C2)cc(C(F)(F)F)c1	-2.1%	-19%	9%
COc1cc2cc[n+]3cc4c(OC)c(OC)ccc4cc3c2cc1OC	-17%	2%	-28%
O=C(CC[N+](=O)[O-])OCC1OC(O)C(OC(=O)CC[N+](=O)[O-])[C@@H](OC(=O)CC[N+](=O)[O-])C1OC(=O)CC[N+](=O)[O-] (stereo partly drawn)	0.8%	-7%	-5%
O=S(=O)(c1ccccc1)N1CCC2(CC1)CN(Cc1nccs1)C2	4.2%	-5%	-3%
COc1cc2c(cc1O)C(Cc1ccc(O)cc1)N(C)CC2 (stereo not drawn)	3.3%	7%	-7%
CN(C)c1ncc2nc(-c3ccccc3)c(=O)n(CCC#N)c2n1	4.3%	-15%	10%
NCCC(=O)N[C@H](Cc1cnc[nH]1)C(=O)O	3.1%	1%	-2%
COc1ncc2nc(-c3cccs3)c(=O)n(Cc3ccc(F)cc3)c2n1	5.6%	12%	-5%
COC(=O)/C(=C1\OC(=O)C(c2ccccc2)C1=O)c1ccccc1 (stereo not drawn)	-12%	45%[activator]	-13%
O=C(c1cnccn1)N1CCC2(CCCN(c3ccccc3)C2)CC1	-0.2%	-10%	10%
COc1ccc(CNc2nc(-c3cccnc3)nc3ccccc23)c(OC)c1	-4.2%	-24%	8%
O=C(NC(=O)c1c(F)cccc1F)Nc1cc(Cl)c(OC(F)(F)C(F)C(F)(F)F)cc1Cl (stereo not drawn)	1.3%	-19%	-4%
COc1ccc(CNc2ncnc3ccc(-c4ccccc4C#N)cc23)c(OC)c1	-5.6%	-20%	?
Cc1noc(C)c1C(=O)N1CCC2(CCN(Cc3ccc(C#N)cc3)CC2)CC1	-1.3%	-21%	1%

Some of the compounds tested; count on the stated rates, not on these rows.
